Cruzain Triton = cruzain (T. cruzi) inhibition with detergent | 0.43% of 200,000 active | purified cruzain, Z-FR-AMC fluorescence, 0.01% Triton | Potency, µM, without a hit: max response, negative = inhibition, hits mostly inhibitors | P25779; active = well fitted curve in the direction sought with a large enough effect; inconclusive = small, poorly fitted or top-dose-only effect, or another doubt; inactive = no such curve, though single readings can be large; an effect the other way counts as inactive or inconclusive;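 note: plate controls were neutral wells for no effect and buffer without enzyme for full effect; nearly all actives have a fitted effect of over 40% in size; top concentration of the series not given in the record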
Target sequence (P25779 123-467 limits assumed): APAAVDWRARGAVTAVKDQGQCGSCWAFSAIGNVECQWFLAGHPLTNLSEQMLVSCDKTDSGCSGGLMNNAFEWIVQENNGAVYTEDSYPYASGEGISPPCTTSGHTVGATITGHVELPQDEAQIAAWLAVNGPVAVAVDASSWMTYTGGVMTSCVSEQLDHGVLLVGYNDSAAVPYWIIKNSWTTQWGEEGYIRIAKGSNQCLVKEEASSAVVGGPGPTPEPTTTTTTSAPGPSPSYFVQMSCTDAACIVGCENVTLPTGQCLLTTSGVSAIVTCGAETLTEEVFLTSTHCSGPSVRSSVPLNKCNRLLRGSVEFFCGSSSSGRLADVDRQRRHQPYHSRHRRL
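Z-FR-AMC hydrolysis (2 uM substrate) by cruzain (1.5 nM) monitored kinetically at ex 360/em 450 nm after 15 min room-temperature compound exposure; 0.01% Triton X-100, pH 5.5, 5 mM DTT.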
Lassa entry inh = blocks Lassa virus binding to or entry into cells. Potency, µM (highest dose often 37.9 µM), without a hit: at the highest dose activity change, negative = inhibition, most hits filed as inhibitors. Lassa virus pseudotype entry inhibition, cell reporter; control for the full effect not named in the record. 1.2% of 300,000 active; active means well fitted inhibition curve with a large enough effect; inconclusive means small, poorly fitted or top-dose-only effect, or effect the other way; inactive means flat fitted curve, though single readings scatter; tested in HEK293 cells; note: % is set by controls: 0 for no effect and ±100 for the full control effect; nearly all actives have a fitted effect of over 50% in size; luciferase read-out
RE007 growth inh = less growth of the S. pombe RE007 Vpr strain | Potency, µM (highest dose often 92.2 µM), for the others: at the highest dose activity change, negative = less growth | 0.21% of 360,000 active | S. pombe RE007 Vpr strain, BacTiter-Glo ATP luminescence, 24 h; control for the full effect not named in the record; active = well fitted falling curve with a large enough effect; inconclusive = small, poorly fitted or top-dose-only effect; inactive = no such curve, though single readings can be large or run the other way;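 note: % is set by controls: 0 for no effect and ±100 for the full control effect; nearly all actives have a fitted effect of over 50% in size; the assay follows cell death caused by Vpr and the record does not say whether a fall means rescue or toxicity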
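Fission yeast strain RE007, carrying one chromosomally integrated HIV-1 vpr copy, was seeded at OD 0.01 in PMG+AL medium with 23 nL pinned compound. After 24 h at 30 °C and 99% humidity, viability was read by BacTiter-Glo luminescence.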
Cruzain inh noDet = inhibitors of Trypanosoma cruzi cruzain without detergent; Potency, µM, inactives show max response, negative = inhibition, hits mostly inhibitors; 2.3% of 200,000 active; purified cruzain, Z-FR-AMC fluorescence, no detergent; active = well fitted curve in the direction sought with a large enough effect; inconclusive = small, poorly fitted or top-dose-only effect, or another doubt; inactive = no such curve, though single readings can be large; an effect the other way counts as inactive or inconclusive;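 note: plate controls were enzyme without inhibitor for no effect and buffer without enzyme for full effect; nearly all actives have a fitted effect of over 40% in size; top concentration of the series not given in the record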
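Detergent-free condition (0.00005% Triton X-100) in acetate buffer pH 5.5 with DTT. 1.5 nM enzyme and compound were pre-mixed 15 min, then 2 uM Z-FR-AMC substrate added; reaction progress from fluorescence change between first and third reads (60 s).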
NS1 function inh = blocks influenza NS1 protein function. S. cerevisiae slowed by influenza A NS1, growth recovery by OD600. Potency, µM (highest dose often 46.1 µM), without a hit: top-dose activity, positive = more growth. 0.4% of 270,000 active. AID 2326; note: actives are rising curves; nearly all actives have a fitted effect of over 50% in size
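OD600 was taken as the measure of yeast growth restored by compound in an NS1-expressing S. cerevisiae strain. Cells had been washed out of glucose medium and diluted 1:100 into galactose -URA medium, pH 6.0.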
Marburg entry inh = blocks Marburg virus binding to or entry into cells; 1.8% of 300,000 active; Marburg virus pseudotyped entry inhibition, cell reporter; control for the full effect not named in the record; about a third of the inactives were read at about 46 µM; Potency, µM (series often up to 37.8 µM), for inactives: top-dose activity change, negative = inhibition, usual class: inhibitors; active = well fitted inhibition curve with a large enough effect; inconclusive = small, poorly fitted or top-dose-only effect, or effect the other way; inactive = flat fitted curve, though single readings scatter; tested in HEK293 cells; about a fifth of its hits are not listed in these tables; note: % is set by controls: 0 for no effect and ±100 for the full control effect; luciferase read-out
2A StopGo = lowers the luciferase signal of an FMDV 2A StopGo reporter | human cells with a luciferase reporter of 2A StopGo recoding; control for the full effect not named in the record | Potency, µM (doses to about 57.9 µM), inactives show top-dose signal change, negative = less light | 1.2% of 410,000 active | AID 1159524; active = well fitted falling curve with a large enough effect; inconclusive = small, poorly fitted or top-dose-only effect; inactive = no such curve, though single readings can be large or run the other way; tested in HEK293T cells; note: % is set by controls: 0 for no effect and ±100 for the full control effect; nearly all actives have a fitted effect of over 45% in size; luciferase light after 4 h
SARS PLpro yeast = inhibitors of SARS-CoV papain-like protease in yeast; S. cerevisiae expressing SARS-CoV PLpro, growth rescue; control for the full effect not named in the record; Potency, µM (top dose mostly 32.9 µM), for inactives: at the highest dose activity, positive = growth rescue; 0.19% of 330,000 active; AID 485353; note: 0% is about no effect; nearly all actives have a fitted effect of over 55% in size; growth read by luminescence after 48 h
* marks the source's active call; other numbers are inactive results; u = inconclusive; x = not tested or not shown; [ ] = dose if it differs, or a comment. Unless noted, calls come from the whole dose curve; as a rule, active means well fitted rising curve with a large enough effect; inconclusive means small, poorly fitted or top-dose-only effect; inactive means no such curve, though single readings can be large or run the other way. Potency is the fitted concentration of half-maximal effect.

SMILES	Cruzain Triton	Lassa entry inh	RE007 growth inh	Cruzain inh noDet	NS1 function inh	Marburg entry inh	2A StopGo	SARS PLpro yeast
CCOC(=O)/C(C)=N/Nc1nc(-c2ccc(NC(C)=O)cc2)cs1	x	-8%[46.1 µM]	-14%	x	-2%	-8%[46.1 µM]	-14%	1%
COc1cc2c(cc1OC)CN(C(=O)c1ccc([N+](=O)[O-])o1)CC2	x	-15%	-7%	x	-88%	-13%[46.1 µM]	-21%	-4%
CC(=O)c1ccc(NC(=O)c2cc(S(=O)(=O)N3CCCCCC3)cn2C)cc1	-3.8%	15%[46.1 µM]	x	5%	x	x	-9%	x
O=C(c1ccccc1F)N1C[C@H]2C[C@@H](C1)c1cccc(=O)n1C2	x	x	0%	x	2%	x	-16%	-3%
Cc1cccc(CN(C(=S)Nc2c(C)cccc2C)c2cccnc2)c1	x	-23%	-7%	x	x	u	-8%	-1%
CC(C(=O)N1CCCCCC1)N(c1ccc(Cl)cc1)S(C)(=O)=O (stereo not drawn)	x	-10%[46.1 µM]	5%	x	0%	-11%[46.1 µM]	-18%	u
Nc1c(C(=O)c2ccccc2)oc2ccccc12	-5.7%	0%	-18%	-2%	-5%	5%	35%[activator]	-6%
CS(=O)(=O)N1CCN(c2ccc(NC(=O)COc3ccccc3)cc2)CC1	x	-20%	15%	x	x	-15%[46.1 µM]	-7%	0%
COc1ccc2oc(=N)c(C(=O)Nc3ccc(F)cc3)cc2c1	x	5%[46.1 µM]	12%	x	2%	u	22%	1%
CC(=O)N=c1sc(C(C)(C)C)c(C)n1C	-0.1%	2%	-3%	7%	-7%	0%	-1%	-4%
C=CCSc1nc2ccccc2c(=O)n1Cc1ccccc1	x	-11%	1%	x	x	u	-23%	-6%
COc1cc(C2CC(=O)c3cnc(NC(=O)COc4ccccc4)nc3C2)cc(OC)c1OC (stereo not drawn)	-10%	19%	-7%	26%	u	0%	-13%	11%
Cc1ccc(NC(=O)CN2C(=O)NC(C)(CC(C)C)C2=O)c(Br)c1 (stereo not drawn)	x	-16%[46.1 µM]	3%	x	x	-25%[46.1 µM]	13%	-15%
COc1ccc(CCCc2nnc(SCC(=O)Nc3ccc(C)cc3)o2)cc1	-2.8%	3%[46.1 µM]	x	-10%	x	-2%[46.1 µM]	-29%	x
Brc1ccccc1OCCCN1CCCC1	x	x	-2%	x	u	x	-4%	3%
COc1cccc(CNC(=O)C2CCC(CNS(=O)(=O)c3ccc4c(c3)CCCC(=O)N4)CC2)c1 (stereo not drawn)	0.0%	10%[46.1 µM]	x	13%	x	x	-17%	x
CCn1nnnc1SCC(=O)Nc1ccc(OCc2ccccc2)cc1	0.0%	-10%	-4%	u	5%	-3%	-17%	3%
O=C(O)c1cccc(-n2cccc2/C=C/[N+](=O)[O-])c1	x	x	-11%	x	-8%	x	-6%	3%
Cc1ccc(C(=O)N2CCC(C(=O)NCc3ccco3)CC2)cc1	x	-15%[46.1 µM]	-15%	x	5%	-2%[46.1 µM]	-4%	-1%
CCOc1cc(/C=N\NC(=O)c2ccc(NC(=O)C(C)(C)C)cc2)ccc1OC(=O)c1cccc(C)c1	0.1%	6.5µM*	7%	-22%	11%	2.6µM*	8.9µM*	5%
CSc1ccc(C(=O)C2CCCN(C(=O)Cc3nonc3C)C2)cc1 (stereo not drawn)	x	3%[46.1 µM]	-6%	x	-8%	3%[46.1 µM]	-8%	1%
Cn1c(SCc2nc(-c3ccc(Br)cc3)no2)nnc1-c1ccco1	-11%	u	-20%	u	-114%	-23%	-22%	-8%
Cc1ccc(NC(=O)COc2coc(CN3CCc4ccccc43)cc2=O)cc1Cl	x	u	4%	x	x	4%[46.1 µM]	-27%	0%
CCOC(=O)c1c(NC(=O)CN2C(=O)NC3(CCC(C)CC3)C2=O)sc(C(=O)N(C)C)c1C (stereo not drawn)	x	4%	-3%	x	x	3%	-22%	2%
CSc1ncc(Cl)c(C(=O)N(Cc2ccc(C)cc2)C2CCS(=O)(=O)C2)n1 (stereo not drawn)	-3.6%	-15%[46.1 µM]	x	-6%	x	12%[46.1 µM]	-24%	x
Oc1ccccc1C1=Nc2nc3ccccc3n2C(c2ccccc2)C1 (stereo not drawn)	-4.7%	u	u	25µM*	12%	u	-16%	-14%
CCc1ccc2oc(C(=O)Nc3cccnc3)c(C)c2c1	x	x	1%	x	-17%	x	27%	-12%
CCc1ccc(NC(=O)CCn2c(=O)oc3ccccc32)cc1	-0.6%	5%	4%	1.3µM*	-8%	0%	28%	2%
N#C/C(=C\c1cccnc1)c1ccccc1[N+](=O)[O-]	x	-14%[46.1 µM]	10%	x	-27%	u	-15%	2%
O=C(CCc1ccccc1)Nc1ccc2c(c1)OCO2	x	u	0%	x	-24%	0%	58%[activator]	-2%
O=C(O)COc1ccc(Cl)cc1CO	1.5%	3%	-6%	4%	0%	10%	x	-1%
COCc1cc(C)nc(SCc2ccc(Br)cc2)c1C#N	x	3%	9%	x	x	-21%[46.1 µM]	-8%	x
Cc1cccc(NNC(N)=S)c1C	x	-1%[46.1 µM]	0%	x	-37%	-3%[46.1 µM]	-2%	-8%
CC1(C)Cc2c(sc3nnn(Cc4ccccc4)c(=O)c23)CO1	-11%	u	19%	-1%	-4%	7%	-15%	1%
O=C(CSCc1c(F)cccc1Cl)NCC1CCCO1 (stereo not drawn)	5.4%	5%	-15%	0%	11%	11%	0%	-6%
O=C(c1cc2ccccn2n1)N1CCCC1	2.6%	x	x	-2%	-6%	-9%	x	-1%
CCC(=O)Nc1cccc(NC(=O)CSc2nnc(C(C)C)n2CC)c1	6.2%	-6%	15%	16%	-35%	-27%	14%	2%
Cc1ccc(-n2nc(C)c(C(C)(O)C(F)(F)F)c2N)cc1 (stereo not drawn)	-2.8%	9%	-12%	-10%	5%	-3%	-5%	-5%
CCCCC(=O)Nc1ccc(N2CCN(C(=O)c3ccco3)CC2)cc1	x	7%	3%	x	-9%	10%	-1%	u
CC(C)(C)C(=O)Nc1cccc(-c2ncon2)c1	x	x	6%	x	-3%	x	1%	0%
CCN(CC)C(=O)Cc1ccccc1	x	x	-12%	x	5%	x	0%	1%
COc1ccc2[nH]c(=O)c(CN(C(C)=O)c3ccc(C)cc3C)cc2c1	x	-19%	-2%	x	9%	-7%	-13%	4%
Cc1c(C(=O)OC2CCCCC2)[nH]c2c1C(=O)CC(c1ccccc1)C2 (stereo not drawn)	-0.8%	u	x	-8%	x	-4%[46.1 µM]	-24%	x
Nc1ccc(S(=O)(=O)c2ccc(Cl)cc2)cc1	0.4%	10%	-14%	3%	-60%	-3%	x	6%
CCc1ccc(NC(=O)CC2C(=O)N(c3ccc(C)cc3)C(=O)N2C2CC2)cc1 (stereo not drawn)	x	x	9%	x	-4%	x	-9%	0%
O=S(=O)(Nc1ncccn1)c1ccc(NC(=S)Nc2ccccc2)cc1	x	u	24%	x	12%	16%	-1%	2%
S=C(NCc1cccnc1)Nc1ccc2c(c1)OCO2	x	11%[46.1 µM]	20%	x	-3%	12%[46.1 µM]	17%	-3%
Cc1ccc(NC(=O)Cn2c(=O)c3cc(Cl)ccc3n3nncc23)cc1	-2.6%	12%[46.1 µM]	x	-4%	x	u	1%	x
O=C(CCN1C(=O)CSC1=O)Nc1ccc(Br)cc1	4.0%	-1%	2%	-9%	-7%	0%	29%	18%
O=C(O)c1ccc(NS(=O)(=O)/C=C/c2ccccc2)cc1O	-5.0%	-22%[14.3 µM]	15%	-17%	-4%	8%	39%[activator]	4%
CC(C)(C)NC(=O)N1CCC(C(=O)O)CC1	-0.9%	0%[46.1 µM]	x	8%	x	x	-16%	x
COC(=O)c1c(NC(=O)CC2SC(N)=NC2=O)sc2c1CCC(C)C2 (stereo not drawn)	-9.0%	-1%	3%	u	17%	u	-29%	-29%
O=C(O)c1ccc(NCc2nc3cc4ccccc4cc3[nH]2)cc1	0.0%	7%	11%	9%	9%	6%	16%	x
CCOC(=O)Nc1ccc2c3c(cccc13)-c1ccccc1-2	x	-3%	-22%	x	x	-15%	50%[activator]	x
C1CCC(OCCN2CCN(CCOC3CCCCC3)CC2)CC1	7.2%	-24%	1%	-1%	1%	u	x	6%
CC(NC(=O)c1ccccc1)C(=O)OCC(=O)c1ccc(Br)cc1 (stereo not drawn)	x	x	-3%	x	-19%	x	-22%	-1%
Cc1ccc(OCC(O)CN2CCN(CCO)CC2)c(C)c1 (stereo not drawn)	x	x	-6%	x	4%	x	-10%	-1%
Cc1cc(NC(=O)CCC2CCCC2)no1	-1.0%	6%	57%	2%	-3%	-4%[46.1 µM]	61%[activator]	-1%
CO/N=C/NC(=O)c1ccc([N+](=O)[O-])c(CS(=O)(=O)c2ccc(Cl)cc2)c1	0.4%	-1%	-10%	16%	2%	u	-12%	4%
CCN1CCCC1CNC(=O)CSc1cc(=O)n(C)c2cc(Cl)ccc12 (stereo not drawn)	-3.0%	20%	28%	4%	-1%	u	-8%	2%
Carrying on:
SMILES	Cruzain Triton	Lassa entry inh	RE007 growth inh	Cruzain inh noDet	NS1 function inh	Marburg entry inh	2A StopGo	SARS PLpro yeast
O=C(c1cccc2ccccc12)N1CCN(CC2CC=CCC2)CC1 (stereo not drawn)	0.4%	u	8%	-4%	-5%	-10%	x	1%
COc1cccc(CCNC(=O)CC2C(=O)NCCN2Cc2ccc(C)o2)c1 (stereo not drawn)	x	x	6%	x	-9%	x	9%	4%
CCOC(=O)C1CCN(C(=O)/C=C/c2cc(OC)c(OC)c(OC)c2)CC1	-4.0%	4%	4%	1%	6%	u	-6%	0%
COc1ccc(C2CC(c3cccs3)=NN2C(=O)CCC(=O)O)cc1 (stereo not drawn)	x	x	0%	x	15%	x	10%	6%
O=[N+]([O-])c1ccc(N2CCN(C(=S)Nc3cccc(F)c3)CC2)cc1	x	x	16%	x	1%	x	u	-1%

Compound activity as filed in PubChem BioAssay.
